Screens (PubChem BioAssay)
Insulin prom inh: TRM-6 insulin promoter activity inhibition; TRM-6 cells (human fetal islet line), insulin promoter-eGFP reporter, imaging; reporter expression induced with tamoxifen; AID 1273; inhibition, % at 2 µM; actives 0.9% (n = 130,000);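 active means inhibition above the mean plus 3 SD, with well images judged a real hit on visual review, cut at about 60% in these data, passing the limit was not always enough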
HSV replic up: increases HSV replication in cells; HSV replication augmentation in cells, fold increase; maximum fold increase; actives 0.005% (n = 220,000); AID 1956;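 active means peak rise of 1.5-fold or more in the series; tested in PC3 cells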;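 further: first round at 10 µM; read as green reporter fluorescence; hits show the peak of a series up to 25 µM; 1 = signal of infected wells without compound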
GALR2 agonist: GALR2 (human) receptor agonism; O43603; GALR2-expressing cells, agonist activation read-out; activation, %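 (tested at 5 µM)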; actives 0.48% (n = 140,000);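 active means above mean plus 3 SD of all compounds, about 5% in these data, not always enough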;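 further: 0% = vehicle buffer wells and 100% = reference agonist at full effect; tested in CHO reporter cells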
PKD1 inh: blocks activity of human protein kinase D1. Q15139. PKD1 kinase fluorescence polarization assay. inhibition, %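 (about 10 µM by stock and volumes)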. actives 0.056% (n = 200,000);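 active means inhibition of 50% or more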;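 further: controls were vehicle for no effect and a reference inhibitor for full effect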
Target sequence (Q15139 whole entry, looked up): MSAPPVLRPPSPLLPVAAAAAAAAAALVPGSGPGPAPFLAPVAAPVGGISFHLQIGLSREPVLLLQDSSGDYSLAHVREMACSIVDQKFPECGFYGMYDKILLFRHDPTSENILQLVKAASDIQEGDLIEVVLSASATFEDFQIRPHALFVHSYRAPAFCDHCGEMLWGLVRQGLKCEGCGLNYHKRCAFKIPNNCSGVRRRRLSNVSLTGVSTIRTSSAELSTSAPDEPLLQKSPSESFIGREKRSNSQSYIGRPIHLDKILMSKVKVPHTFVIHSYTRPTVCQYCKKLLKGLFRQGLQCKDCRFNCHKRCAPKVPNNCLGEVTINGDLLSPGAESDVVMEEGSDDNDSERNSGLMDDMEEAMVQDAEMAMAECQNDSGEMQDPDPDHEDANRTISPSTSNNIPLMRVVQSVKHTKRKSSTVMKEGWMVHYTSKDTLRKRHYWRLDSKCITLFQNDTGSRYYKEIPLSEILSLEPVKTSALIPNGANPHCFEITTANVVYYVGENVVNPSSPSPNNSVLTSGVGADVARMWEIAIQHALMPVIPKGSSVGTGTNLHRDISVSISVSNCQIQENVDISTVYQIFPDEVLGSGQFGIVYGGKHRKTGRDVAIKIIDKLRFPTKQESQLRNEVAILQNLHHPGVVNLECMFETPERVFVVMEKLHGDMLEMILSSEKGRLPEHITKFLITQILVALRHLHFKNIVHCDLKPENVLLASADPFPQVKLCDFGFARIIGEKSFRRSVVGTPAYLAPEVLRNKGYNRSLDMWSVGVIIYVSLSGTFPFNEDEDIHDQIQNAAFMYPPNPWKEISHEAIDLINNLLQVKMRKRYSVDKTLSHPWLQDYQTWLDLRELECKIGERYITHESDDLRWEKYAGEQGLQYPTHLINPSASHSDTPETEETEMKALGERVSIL
RGS16-Gao: regulators of human RGS16-Galphao interaction | O15492+P09471 | bead-based flow cytometry RGS16-Galphao binding, fluorescence; actives lie on both sides | binding response (% of control), % at 10 µM | actives 0.38% (n = 220,000) | AID 1441;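 active means below 25% or above 175%, edge rows of some plates excepted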;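 further: Galphao activated by GDP with aluminum fluoride before binding; 100% = wells without compound and 0% = beads without RGS; some results beyond the cut were filed as inactive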
Insulin prom inh cell count: also measured in Insulin prom inh; calls as there; normalized cell count, %; measured here: cell count, toxicity; reference of the scale not given here;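 cells exposed to compound for 48 h; stained nuclei by imaging scaled within each plate; lower means fewer cells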
HSV replic up primary fold: second read-out of HSV replic up, no call of its own (marks repeat the call); fold increase; compound at 10 µM; measured here: primary screen fold increase 10 uM; tested in PC3 cells;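 GFP signal in the first replicate; 1 = infected wells without compound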
Starred values were filed as active, the others as inactive; i = inactive; x = not tested or not shown. No enrichment for hits. About 1.3% of those tested had a hit in this group.

Start of the data: the first 2 records, ahead of the listing:
SMILES | Insulin prom inh | Insulin prom inh cell count | HSV replic up | HSV replic up primary fold | GALR2 agonist | PKD1 inh | RGS16-Gao
O=C1C2C3c4ccccc4C(c4ccccc43)C2C(=O)N1Cc1cccnc1 (centres undefined) | 10 | 153 | i | 1 | -2.2 | -9 | 103
CCn1cc(C(=O)N2CCN(c3ccc(F)cc3)CC2)c2cc(OC)c(OC)cc2c1=O | 58 | 85 | i | 0.99 | x | -1 | 136

Main list, from the first entry:
SMILES | Insulin prom inh | Insulin prom inh cell count | HSV replic up | HSV replic up primary fold | GALR2 agonist | PKD1 inh | RGS16-Gao
O=C1C2C3c4ccccc4C(c4ccccc43)C2C(=O)N1Cc1cccnc1 (centres undefined) | 10 | 153 | i | 1 | -2.2 | -9 | 103
CCn1cc(C(=O)N2CCN(c3ccc(F)cc3)CC2)c2cc(OC)c(OC)cc2c1=O | 58 | 85 | i | 0.99 | x | -1 | 136
Cc1nnc(SCC(=O)Nc2cccc(C(F)(F)F)c2)n1Cc1ccco1 | x | x | i | 1 | -0.7 | -5 | 100
COc1cccc(-c2cc(=O)c3cc(NC(=O)c4ccc(Cl)cc4)ccc3[nH]2)c1 | -145 | 17 | i | 0.69 | -2.1 | -12 | 105
COc1ccc(NC(=O)Cn2c(=O)n(CC3CCCO3)c(=O)c3ccccc32)c(OC)c1 (centres undefined) | x | x | i | 0.99 | x | 9 | 106
Cc1ccc(C2C(C(=O)c3ccco3)=C(O)C(=O)N2c2ncccn2)cc1 (centres undefined) | x | x | i | 0.96 | x | x | 100
O=C(C1=C[C@H](c2ccc(C(F)(F)F)cc2)C[C@H](OCc2ccc(CO)cc2)O1)N1CCCCCCC1 | x | x | x | x | x | -5 | 105
CCC(=O)c1cn(CC(=O)NCc2ccco2)c2ccccc12 | 14 | 14 | i | 0.98 | -2.0 | -3 | 101
CC(C)(C)NC(=S)N/N=C\c1ccc(-c2ccc([N+](=O)[O-])cc2)o1 | x | x | i | 0.89 | x | x | 106
CCCC(=O)Nc1ccc(C(=O)N2CCCC2)cc1 | 3 | 149 | i | 0.97 | -0.2 | 0 | 103
O=S(=O)(Nc1ccc(O)c(Sc2nc3ccccc3s2)c1)c1cccc2ccccc12 | x | x | i | 0.84 | -0.1 | 0 | 101
CN(C)c1ccc(NC(=O)c2ccncc2)c2ccccc12 | -4 | 158 | i | 1.1 | -1.2 | -8 | 103
Cc1cccc(Oc2ccccc2N)c1 | 34 | 128 | i | 1.1 | -3.1 | -3 | 105
COc1ccc(-c2csc(N(C)C(=O)c3cccs3)n2)cc1 | x | x | i | 0.99 | x | -3 | 101
Cc1nnc(SCc2cccc3ccccc23)n(N)c1=O | x | x | i | 0.93 | -0.2 | -1 | 43
COC(=O)c1cc(C#N)c(SCc2ccccc2)nc1C | x | x | i | 0.97 | -1.0 | -1 | 101
COc1cc(NC(=O)CCN2CCN(Cc3ccccc3)CC2)cc(OC)c1 | 7 | 147 | i | 0.92 | 0.1 | -5 | 98
Cc1ccc2nc(N(CCCN(C)C)C(=O)c3ccc4c(c3)CCCC4)sc2c1 | x | x | i | 0.74 | 3.5 | -6 | 49
O=C1Nc2cc(Cl)c(Cl)cc2N(O)N1c1ccccc1Cl | -111 | 122 | i | 0.95 | x | 4 | 113
CCCCOC(=O)Nc1ccc(N2CCOCC2)cc1 | 35 | 141 | i | 0.89 | -2.5 | 0 | 102
COc1ccc(C(=O)NNC(=O)c2ccccn2)cc1 | 37 | 76 | i | 0.98 | -1.2 | -10 | 29
COc1ccc(OCC(=O)N2CCN(C(=O)c3cccc(F)c3)CC2)cc1 | -48 | 106 | i | 0.98 | -0.9 | -4 | 151
COc1ccc(C2=NNC(c3ccco3)=Nc3ccc(F)cc32)cc1 | x | x | i | 0.88 | x | 3 | 102
CCc1cc2c(nc1CC)CCN(CC/C(C)=N/OC[C@H]1O[C@H](c3ccccc3)C=C[C@@H]1Oc1ccc(OC)cc1)C2 | -124 | 111 | x | x | -0.8 | -6 | 99
COc1ccc(NC(=O)NCCCN2CCCC2=O)c(OC)c1 | 0 | 116 | i | 0.92 | -0.5 | -1 | 102
O=C(Nc1nc2cc3c(cc2s1)OCO3)c1ccco1 | x | x | i | 1.1 | x | x | 93
Nc1nnc(SCCOc2ccc(Br)cc2)s1 | x | x | i | 1.2 | -0.8 | -12 | 104
CCCCC(CCC(=O)Nc1cc([N+](=O)[O-])ccc1O)C(=O)O (centres undefined) | x | x | i | 0.8 | x | 6 | 100
Cc1ccc(NC(=O)C2C(=O)N(CCO)C3(C)CC2c2ccccc2O3)cc1 (centres undefined) | -35 | 151 | i | 0.87 | -2.6 | -10 | 31
COc1ccccc1NC(=O)N(Cc1ccco1)Cc1cc2cccc(C)c2[nH]c1=O | -32 | 126 | i | 0.89 | -1.4 | -6 | 97
CC(OC(=O)c1ccccc1)C(=O)NCCC1=CCCCC1 (centres undefined) | x | x | i | 1 | x | -1 | 111
CCOc1ccc(-c2nnc(-c3ccccc3)n2-c2ccccc2)cc1 | -5 | 156 | i | 0.93 | 0.7 | -1 | 100
CCN(CC)c1ccc(-c2c(C#N)c(N)nc(OC)c2C#N)cc1 | 25 | 129 | i | 0.85 | 2.8 | -8 | 99
c1ccc(-n2ncc3c(NCc4ccccn4)ncnc32)cc1 | x | x | i | 0.95 | -0.1 | 11 | 90
CCCN(CCC)C(=O)CSc1nc2c(sc(=S)n2-c2ccc(OCC)cc2)c(=O)[nH]1 | -50 | 145 | i | 0.96 | x | 0 | 101
COc1cc(NC(=O)c2ccc([N+](=O)[O-])cc2)c(OC)cc1NC(=O)CC(C)C | x | x | i | 0.92 | x | -4 | 100
O=C(Oc1ccccc1)N(c1ccccc1)c1ccccc1 | x | x | i | 1 | x | x | 106
CSc1nc(Oc2ccc(F)cc2F)cc(C(F)(F)F)n1 | -27 | 76 | i | 0.9 | -1.0 | 2 | 98
C/C(=N\N=C(/N)SC1CC(=O)N(c2cccc(Cl)c2)C1=O)c1cccs1 (centres undefined) | x | x | x | x | -2.0 | 12 | 100
CCc1nc(N2CCCC2C(=O)O)c2oc3ccccc3c2n1 (centres undefined) | 46 | 73 | i | 0.96 | -0.2 | -6 | 100
CCc1cccc(NC(=S)N(CCN(C)C)C(C)c2ccncc2)c1 (centres undefined) | x | x | i | 0.85 | x | x | 101
CC1(C)CC(=O)c2c(nc(SCC(=O)Nc3nsc(-c4ccccc4)n3)c(C#N)c2-c2ccccc2)C1 | x | x | i | 0.86 | -0.5 | -2 | 106
COc1ccccc1N1CCN(C2CC(=O)N(C)C2=O)CC1 (centres undefined) | x | x | i | 0.96 | x | -5 | 105
CC(=O)Nc1ccc(OC(=O)c2cc3ccccc3oc2=O)cc1 | -11 | 128 | i | 0.96 | -3.2 | 3 | 98
CC1CCc2cc(F)ccc2N1C(=O)CSc1nnc(-c2cccs2)n1C (centres undefined) | x | x | i | 0.86 | -0.7 | -3 | 102
COc1ccc(/C=N/Nc2nonc2N)c(OC)c1 | 15 | 176 | i | 0.92 | x | 3 | 104
Cc1ccc2nc(/C(C#N)=C\c3ccc(Oc4ccc(C(F)(F)F)cc4[N+](=O)[O-])cc3)[nH]c2c1 | x | x | i | 1.2 | 0.3 | -5 | 148
CC(C)NC(=O)c1ccccc1NC(=O)Cc1ccc([N+](=O)[O-])cc1 | x | x | i | 0.92 | x | 0 | 102
COc1ccc([N+](=O)[O-])cc1NC(=O)CCc1ccccc1 | -188 | 97 | x | x | -1.1 | 1 | 93
CC1(C)Cc2cccc(OCC(=O)N3CCN(S(=O)(=O)c4ccc(F)cc4)CC3)c2O1 | -29 | 77 | i | 1 | -0.3 | -9 | 101

Further records follow:
SMILES | Insulin prom inh | Insulin prom inh cell count | HSV replic up | HSV replic up primary fold | GALR2 agonist | PKD1 inh | RGS16-Gao
O=C(Cn1nnc2ccccc21)OCC(=O)c1ccc(Cl)c(Cl)c1 | -62 | 165 | i | 1 | -1.6 | 10 | 123
CCn1ncc(Br)c1C(=O)Nc1ccc2c(c1)OCCO2 | x | x | i | 0.93 | x | 8 | 101
O=C(CSc1nnc(-c2cccnc2)n1Cc1ccco1)NCc1ccc2c(c1)OCO2 | -285 | 124 | i | 0.92 | -2.6 | 1 | 99
O=C(O)c1cc(N/N=C2/CC(c3ccccc3)Oc3ccccc32)ccc1Cl (centres undefined) | 34 | 82 | i | 0.92 | -0.5 | -1 | 109
CCN1CCN(C(=O)c2oc(=O)c3ccccc3c2-c2ccc(C)cc2)CC1 | x | x | i | 1.2 | -1.3 | -6 | 102
COc1cccc(-c2[nH]nc3c2C(c2ccc(C)o2)C(C#N)=C(N)O3)c1 (centres undefined) | 49 | 72 | i | 1.1 | -1.8 | 2 | 99
CCN(CC(O)CON=C1c2ccccc2-c2ccccc21)S(=O)(=O)c1ccc(C)cc1 (centres undefined) | x | x | i | 0.89 | -1.2 | 3 | 104
O=C(Nc1cc(C(F)(F)F)ccc1-n1cnc2ccccc21)c1ccccc1 | -32 | 139 | i | 0.96 | -0.2 | 9 | 100
CN(C)CCn1c2ccccc2c2nc3ccc([N+](=O)[O-])cc3cc21 | x | x | i | 0.76 | x | x | 100
CNC(=S)N/N=C/c1ccc2c(c1)OCCO2 | 37 | 52 | i | 0.99 | -1.1 | -10 | 102
COc1ccc(/C=C/C(=O)Nc2ccc(OC)cc2[N+](=O)[O-])cc1 | x | x | i | 1.1 | -2.1 | -11 | 106
Cc1sc2ncnc(NC3CCN(Cc4ccccc4)CC3)c2c1C | -12 | 69 | i | 0.9 | x | -5 | 101
Cc1ccc(N=C2NC(=O)/C(=C/c3cn(C)c4ccccc34)S2)cc1C | x | x | x | x | -2.2 | -4 | 68
COc1ccccc1N(CC(=O)Nc1c(C)cccc1C)S(C)(=O)=O | -64 | 110 | i | 0.93 | -1.3 | -16 | 81
CCOC(=O)C1(Cc2ccccc2)CCN(Cc2cccn2-c2nccs2)CC1 | -70 | 123 | i | 1 | x | -12 | 105
O=C(O)c1cc(Br)ccc1NN=C1CCCCC1 | x | x | i | 0.92 | -0.4 | -2 | 97
Cc1ccc(NNS(=O)(=O)c2ccc(C)cc2)cc1 | 26 | 103 | i | 0.87 | -1.4 | 2 | 98
O=C(CCCCCN1C(=O)CCC1=O)Nc1ccc2c(c1)OCO2 | -475 | 60 | i | 0.99 | -1.7 | -7 | 107
O=C(OCc1cc2ccccc2[nH]c1=O)c1ccccc1 | 9 | 53 | i | 0.99 | -1.5 | 14 | 99
O=c1[nH]c(SCCN2CCOCC2)nc(O)c1-c1ccccc1 | x | x | i | 1.2 | x | x | 97
O=C(CCSc1ccccc1)NCCSCc1ccccc1 | x | x | i | 0.99 | 0.3 | -6 | 101

Pulled by compound from the entries so far, five records:
SMILES | Insulin prom inh | Insulin prom inh cell count | HSV replic up | HSV replic up primary fold | GALR2 agonist | PKD1 inh | RGS16-Gao
CCCC(=O)Nc1ccc(C(=O)N2CCCC2)cc1 | 3 | 149 | i | 0.97 | -0.2 | 0 | 103
Cc1ccc(NNS(=O)(=O)c2ccc(C)cc2)cc1 | 26 | 103 | i | 0.87 | -1.4 | 2 | 98
COc1cc(NC(=O)CCN2CCN(Cc3ccccc3)CC2)cc(OC)c1 | 7 | 147 | i | 0.92 | 0.1 | -5 | 98
COc1ccccc1N1CCN(C2CC(=O)N(C)C2=O)CC1 (centres undefined) | x | x | i | 0.96 | x | -5 | 105
O=C(CCSc1ccccc1)NCCSCc1ccccc1 | x | x | i | 0.99 | 0.3 | -6 | 101

Part of the list above, limited to Insulin prom inh and HSV replic up:
Molecule | Insulin prom inh | HSV replic up
O=C(OCc1cc2ccccc2[nH]c1=O)c1ccccc1 | 9 | i
CCOC(=O)C1(Cc2ccccc2)CCN(Cc2cccn2-c2nccs2)CC1 | -70 | i
